# Bioassay records from PubChem BioAssay.
# VACV Venus inh = qHTS for Stage-Specific Inhibitors of Vaccinia Orthopoxvirus: Venus Reporter Primary qHTS | Vaccinia virus Venus reporter expression, fluorescence | Potency, µM (top dose mostly 36.5 µM), inactives show at the top dose activity change, negative = inhibition, usual class: inhibitors | 330,000 compounds, 0.46% hits | AID 720580, 2013; active means well fitted inhibition curve with a large enough effect; inconclusive means small, poorly fitted or top-dose-only effect; inactive means no such curve, though single readings can be large or run the other way; tested in A549 cells; further: nearly all actives have a fitted effect of over 30% in size; inactives centre near -10
# Vaccinia mCherry = qHTS for Stage-Specific Inhibitors of Vaccinia Orthopoxvirus: mCherry Reporter Primary qHTS; Vaccinia virus mCherry reporter infection, fluorescence; about a quarter of the inactives have no number; Potency, µM (top dose mostly 36.5 µM), inactives show at the highest dose activity change, negative = inhibition, usual class: inhibitors; 310,000 compounds, 0.63% hits; AID 720579, 2013; active = well fitted inhibition curve with a large enough effect; inconclusive = small, poorly fitted or top-dose-only effect; inactive = no such curve, though single readings can be large or run the other way; tested in A549 cells; further: nearly all actives have a fitted effect of over 35% in size; inactives centre near -10
# The depositor's hits bear a star; i = inactive; ? = inconclusive; · = not tested or not shown; & = joins results of further samples; [ ] = remark or other dose. On the % scale 0 is the no-effect control and ±100 the full control effect; potency means the concentration at half of the fitted maximal effect. Compounds as they come (roughly 0.82% active in at least one column).
Compound	Vaccinia mCherry	VACV Venus inh
COc1ccc(Cn2c(=O)n(-c3ccccc3C)c(=O)c3c4c(sc32)CN(C(C)=O)CC4)cc1	-0.3%	-28.2%
CCOC(=O)c1c(/N=C/c2cc(C)ccc2O)sc2c1CCN(C)C2	-12.6%	-15.1%
Cc1cccc(NC(=O)Cn2c(=O)n(Cc3ccccc3)c(=O)c3c(C)c(C)sc32)c1	-15.0%	-5.1%
COc1cc(NC2=CC(=O)CC(C)(C)C2)cc(OC)c1	-14.9%	-11.7%
CCN(CC)CCN1C(=O)c2oc3ccccc3c(=O)c2C1c1ccc(C)cc1 (centres undefined)	·	-14.1%
C=CCn1c(CCNC(=O)c2ccccc2F)nnc1SCC(=O)Nc1ccccc1F	i	-12.7%
CCN(C(=O)c1c(C)oc2ncnc(N3CCCCC3)c12)c1cc(C)ccc1C	-16.3%	-18.3%
CSc1ncccc1C(=O)N1CCCC(Nc2ccc(C)c(C)c2)C1 (centres undefined)	i	-12.3%
O=C(CNC(=O)c1ccc(Cl)cc1Cl)NCCCn1ccnc1	i	-16.9%
CC1CCCN(S(=O)(=O)c2ccc(C(=O)Nc3nnc(-c4ccncc4)o3)cc2)C1 (centres undefined)	?	?

# Following part
Compound	Vaccinia mCherry	VACV Venus inh
COc1ccccc1N1CCN(CCc2c[nH]c3cc4c(cc23)OCO4)CC1	-6.5%	-22.8%
Cc1nn(Cc2ccc(Cl)c(Cl)c2)c(C)c1NC(=O)c1cc(CC(C)C)on1	11.2µM*	?
O=C(Nc1nnc(CCc2ccccc2)s1)C1CCCO1 (centres undefined)	-8.3%	-10.6%
COc1ccc2c(c1OC)C(=O)OC2Nc1ncccc1C (centres undefined)	·	-13.6%
O=C(N[C@H](C(=O)O)c1ccccc1)C1CCC(Cn2cnc3ccccc3c2=O)CC1 (some centres undefined)	-20.4%	-9.5%
O=C(N/N=C/C(Br)=C/c1ccccc1)c1ccccc1F	-27.3%	-25.9%
CC(NC(=O)CCC1COc2ccccc2O1)c1ccccc1 (centres undefined)	-13.0%	-2.1%
C=CCN1CCN(C(=O)c2oc3ccccc3c2C)CC1	-11.6%	-14.8%
Cc1cc(C)cc(-n2ncc3c2CCCC3NC(=O)c2cc(C)[nH]n2)c1 (centres undefined)	-16.7%	4.9%
COc1cccc(/C=N/NC(=O)c2cc3c(OC)ccc(OC)c3[nH]2)c1O	?	?

# Additional compounds follow.
Compound	Vaccinia mCherry	VACV Venus inh
Cn1nnc(NCc2cc(Br)ccc2OCc2cccs2)n1	-8.5%	-16.9%
O=C1CN(C(=O)c2c(F)cccc2F)C(c2ccc(F)cc2)c2cc(F)ccc2N1 (centres undefined)	-16.6%	-11.9%
COCCNC(=O)C1CCCN(C(=O)c2cc(C)n(C(C)(C)C)n2)CC1 (centres undefined)	2.1%	-7.5%
COC(=O)c1ccc(-n2c(C)cc(C(=O)CSc3ccc(NC(C)=O)cc3)c2C)cc1	-19.2%	-13.6%
CC(=O)N1CCc2cc(S(=O)(=O)CCC(=O)O)ccc21	·	2.3%
Cc1nc(C)n(CC(=O)N2CCCC(C(=O)c3ccc(C(F)(F)F)cc3)C2)n1 (centres undefined)	i	-2.7%
CSc1nsc(SCC(=O)Nc2ccc3c(c2)OCCO3)n1	-18.6%	-16.5%
Cc1ccnc2nc(C(=O)NCc3cccs3)nn12	·	-5.7%
COc1ccc(C(=O)NCCNc2nc3cc(C)cc(C)c3cc2C#N)cc1	-9.3%	-21.7%
COc1cccc(C2/C(=C(\O)c3ccc(OC)c(OC)c3)C(=O)C(=O)N2c2cc(C)on2)c1 (centres undefined)	-12.9%	-4.4%

# Filtered by structure: the compounds so far with an aryl thioether with sulfur outside any ring.
Compound	Vaccinia mCherry	VACV Venus inh
C=CCn1c(CCNC(=O)c2ccccc2F)nnc1SCC(=O)Nc1ccccc1F	i	-12.7%
CSc1ncccc1C(=O)N1CCCC(Nc2ccc(C)c(C)c2)C1 (centres undefined)	i	-12.3%
COC(=O)c1ccc(-n2c(C)cc(C(=O)CSc3ccc(NC(C)=O)cc3)c2C)cc1	-19.2%	-13.6%
CSc1nsc(SCC(=O)Nc2ccc3c(c2)OCCO3)n1	-18.6%	-16.5%

# New compounds follow
Compound	Vaccinia mCherry	VACV Venus inh
CC1(C(=O)NS(=O)(=O)c2ccc(Cl)cc2)CCN1C(=O)C/C=C/c1ccccc1 (centres undefined)	-1.5%	-3.5%
CCOC(=O)N1CCC(NC(=O)CS(=O)(=O)Cc2nc(-c3ccc(C)cc3)oc2C)CC1	?	?
CC(=O)O[C@@]12CO[C@@H]1C[C@H](O)[C@@]1(C)C(=O)[C@H](O)C3=C(C)[C@@H](O)C[C@@](O)([C@@H](OC(=O)c4ccccc4)C12)C3(C)C (some centres undefined)	-17.9%	-12.4%
COc1ccc(Cl)cc1N(CC(=O)NCC(C)C)S(=O)(=O)c1ccc(C)c([N+](=O)[O-])c1	-10.7%	-2.7%
Cc1ccc(N=CC=C2OC(C)(C)C(C)(C)O2)c(C)c1	-16.8%	-4.8%
CCC1(CC)C(=O)C=CNC1=O	-20.2%	-14.0%&-13.8%
O=C(O)CCCN1C(=O)C2C3CC(C2C1=O)C1C(c2ccccc2)c2sc(=O)[nH]c2SC31 (centres undefined)	i	8.2%
CCOC(=O)c1c(S(=O)(=O)NCC(=O)N2CCN(c3cc(C)ccc3C)CC2)c(C)n(C)c1C	?	-28.8%
C/C(=N\NC(N)=O)c1ccccc1	-7.3%	-6.6%
CCC(=O)NCCN1CCN(C(=O)CC)CC1	-13.0%	-7.5%

# (continued)
Compound	Vaccinia mCherry	VACV Venus inh
CC(C)CNc1ncnc2nc[nH]c12	-11.7%	-20.4%
N#Cc1c(N2CCOCC2)nc(N2CCCCC2)c2c1CCN(C1CCCCC1)C2	·	-2.6%
Cc1ccc2c(c1)c1nnc(SCC(=O)Nc3ccccc3C(F)(F)F)nc1n2CC(=O)O	-11.5%	-6.3%
Cc1ccc(/C=C(\NC(=O)c2ccccc2)C(=O)OCc2ccccc2)cc1	-23.3%	-11.8%
COC(=O)c1[nH]c2ccc(F)cc2c1NS(=O)(=O)c1ccc(OC)cc1	?	-25.3%
Cn1c2c(c(=O)n(C)c1=O)C(c1cccc([N+](=O)[O-])c1)Nc1ccccc1O2 (centres undefined)	·	-2.0%
COc1cc(/C=C/C(=O)OCC(=O)N2CC(C)OC(C)C2)ccc1OCC#N (centres undefined)	-9.7%	-7.8%
COc1cccc(N2C(=O)N(Cc3ccc(C#N)cc3)c3ccccc3S2(=O)=O)c1	-2.2%	-6.4%
CC(=O)c1ccc(-c2ccc3c4c(ccc3c2)OC(CNC(=O)C(C)N2CCOCC2)C4)s1 (centres undefined)	-17.5%	-18.0%
CCCn1cc(CN2CCC(n3nccc3NC(=O)CCOc3ccccc3)CC2)c(C)n1	21.8%[7.34 µM]	30.4%[activator][7.34 µM]

# Following part:
Compound	Vaccinia mCherry	VACV Venus inh
CC1(C(=O)NS(=O)(=O)c2cccc(Cl)c2)CCN1C(=O)C1CC1 (centres undefined)	i	2.7%
COC1CCCN(C(=O)c2ccc(OC3CCN(CCc4ccccc4)CC3)cc2)C1 (centres undefined)	-0.5%	-19.8%
Cc1cccc(NCc2nnc3n2CCCCC3)c1C	4.5%	1.3%
CCc1ccc(C2C(C#N)=C(N)SC(N)=C2C#N)cc1	-20.1%	0.5%
O=C(Cc1cccs1)NCc1cccc(C(F)(F)F)c1	i	-6.0%
COc1ccc(CCNC(=O)C(NC(=O)OCc2ccccc2)C(C)C)cc1OC (centres undefined)	-9.0%	-13.5%
COc1ccc(OCCSc2nnc(CC(=O)Nc3cccc(Cl)c3Cl)n2C)cc1	-26.8%	-18.1%
COCCNC(C(=O)Nc1cc(Cl)cc(Cl)c1)c1ccccc1 (centres undefined)	-4.1%	-18.1%
CC(C)(C)NC(=O)C(c1ccc(-c2ccccc2)cc1)N(C[C@H]1CC[C@@H]([C@@H]2CC[C@H](CO)O2)O1)C(=O)c1cccc(Cl)c1 (some centres undefined)	-15.7%	-25.6%
Cc1nc(C)c(CC(=O)N2CCOc3ccc(CN4CCOCC4)cc3C2)s1	-7.9%	-6.0%

# Compound profiles, as listed above. Order of values: Vaccinia mCherry, VACV Venus inh
# O=C(N[C@H](C(=O)O)c1ccccc1)C1CCC(Cn2cnc3ccccc3c2=O)CC1 (some centres undefined) reads -20.4%, -9.5%
# Cc1cccc(NCc2nnc3n2CCCCC3)c1C reads 4.5%, 1.3%

# More results follow.
Compound	Vaccinia mCherry	VACV Venus inh
CC1(c2ccccc2)NC(=O)N(CC(=O)Nc2cc3c(cc2Br)OCCO3)C1=O (centres undefined)	-24.3%	-7.4%
CCN(CC)CCOC(=O)c1ccc(N/C=C(/C#N)c2nc(-c3ccc(OC)c(OC)c3)cs2)cc1	i	0.0%
O=C(O)C1CC=CCC1C(=O)NCc1ccccc1 (centres undefined)	-9.7%	-2.8%
CC1CCc2nc3ccc(S(=O)(=O)N4CCC(C(=O)NCc5ccccc5Cl)CC4)cc3c(C(=O)O)c2C1 (centres undefined)	-15.0%&-5.9%	-17.7%&-2.9%
Cc1ccc(NC(=O)CSc2nnc(Cc3cccn3C)n2-c2ccc(F)cc2)c(C)c1	-4.6%	-3.4%
COc1c(CC=C(C)C)cc(C2CC(=O)c3c(O)cc(O)cc3O2)c(CC=C(C)C)c1O (centres undefined)	i	-12.7%
O=C(O)CCSCC(=O)c1ccc2c(c1)OCCO2	·	-18.8%
Cc1c(OCC(=O)N[C@@H](Cc2ccccc2)C(=O)O)ccc2c1oc(=O)c1ccccc12	0.9%	0.0%
CS(=O)(=O)N(CC(=O)NCc1ccccc1Cl)C1CCCCC1	i	-7.7%
O=c1[nH]c(=S)n(-c2cccc(C(F)(F)F)c2)c(O)c1C=NCCN1CCNCC1	i	1.0%

# Remaining list, next part
Compound	Vaccinia mCherry	VACV Venus inh
C=CCn1c(O)c(C=Nc2ccc(N(CC)CC)cc2)c(=O)[nH]c1=O	-1.3%	33.3%[activator]
CCc1ccc(NC(=O)CSc2nnc(-c3ccccn3)n2C)cc1	-15.8%	-14.1%
Oc1ccccc1-c1ccn[nH]1	-14.0%	5.8%
CC(C)c1ccccc1NC(=O)COC(=O)CNC(=O)c1ccc(Br)cc1	-9.7%	-1.1%
O=C(CCc1ccccc1)Nc1nnc(-c2cccs2)o1	i	0.2%
Cc1nnc(NC(=O)CSc2nc3c(c(=O)n2C)SC(C)C3)s1 (centres undefined)	5.7%	-4.6%
O=C(c1cccc(C(F)(F)F)c1)N1CCN(C2CCCCC2)CC1	i	-14.0%
COc1cccc(/C=C2\Sc3ccc(C(=O)NCc4cccnc4)cc3N(C)C2=O)c1	i	-21.1%
CCOc1ccc(N2C(=O)CC(N(O)c3ccccc3)C2=O)cc1 (centres undefined)	-23.9%	-15.7%
O=C(CC1NCCc2ccccc21)Nc1ccccc1Cl (centres undefined)	-5.3%	-1.2%

# Continuation:
Compound	Vaccinia mCherry	VACV Venus inh
CC(=O)SC1CC(=O)N(c2c(C)cccc2C)C1=O (centres undefined)	?	-9.6%
CC(C)[C@H](NC(=O)C1CCN(S(=O)(=O)c2ccccc2)CC1)C(=O)NCc1ccc(F)cc1	-20.1%[7.34 µM]	0.2%[7.34 µM]
COc1ccc(C(=O)C(=O)N2CCC(c3ccccc3)CC2)cn1	0.0%	-3.6%
Cc1cc(C)n(CC(O)Cn2c(C)c(C)c3ccccc32)n1 (centres undefined)	·	-20.3%
Cc1ccc(N2C(=O)C(Cl)=C(N3CCN(C)CC3)C2=O)c(C)c1	·	-11.8%
CCc1ccccc1NC(=O)/C(=C/c1ccco1)c1ccccc1	·	-25.8%
Cc1ccc2c(C)ccc(O)c2n1	-2.6%	-6.5%
O=C(COC(=O)c1ccncc1)NCc1ccccc1	-7.8%[1.46 µM]	?
CC1(C)CC(=O)C(C(C2=C(O)CC(C)(C)CC2=O)c2cccnc2)C(=O)C1 (centres undefined)	·	-11.4%
COc1ccc(CCNC(=O)C2CC3Cn4c(nc5cc(C)c(C)cc54)C3N2C)cc1 (centres undefined)	i	-4.7%

# (more compounds)
Compound	Vaccinia mCherry	VACV Venus inh
CCN(CC(=O)NCc1ccc(Cl)cc1)C(=O)Cc1ccccc1[N+](=O)[O-]	-1.0%	-2.0%
CCN(CC)C(=O)CSc1nnc(-c2cc(-c3ccc(Cl)cc3)nc3ccccc23)o1	-2.5%	-9.3%
O=Cc1ccc(-n2cncn2)cc1	i	-8.4%
Cc1cc(C(=O)NNS(=O)(=O)c2cc(C(=O)O)ccc2Cl)c(C)n1-c1ccccc1	-18.6%	-8.1%
CCOC(=O)c1c(-c2ccco2)csc1NC(=O)COC(=O)c1cnc(C)cn1	-18.3%	-11.4%
O=C(Nc1ccc2c(c1)OCCO2)c1ccc(Br)s1	-17.8%	-20.9%
CCCNC(=O)Nc1ccsc1C(=O)OC	i	-6.4%
c1cc2c(c(CC3CO3)c1CC1CO1)OCCOCCOCCOCCO2 (centres undefined)	i	-8.2%
CN(C)C(=O)c1ccc(NC(=O)c2ccccc2-c2ccccc2)cc1	-17.5%	5.1%
COc1ccc(N2CCN(c3cc(C)nc4ccc(OC)cc34)CC2)cc1	-29.2%	-20.8%

# More records.
Compound	Vaccinia mCherry	VACV Venus inh
CCOc1ccc(NC(=O)CSc2nccn(-c3ccc4c(c3)OCCO4)c2=O)cc1	i	-4.4%
COc1ccc(CC(=O)Nc2ccc(/C(C)=N/NC(=O)c3ccc(OC)cc3OC)cc2)cc1	-7.6%	-15.1%
COc1ccc(-c2nc3ccc(C)cn3c2Cc2ccccc2)cc1OC	11.0%	-12.7%
O=C(c1ccco1)n1nc(-c2ccccc2)nc1NCc1ccccc1Cl	-15.0%	-17.3%
